# VDR inh – vitamin D3 receptor (human) inhibition | P11473 | VDR-SRC2-3 peptide fluorescence polarization, 2 h | Potency, µM, without a hit: max response, negative = inhibition, hits mostly inhibitors | 400,000 tested, 0.93% active | AID 504847; active = well fitted inhibition curve with a large enough effect; inconclusive = small, poorly fitted or top-dose-only effect, or another doubt; inactive = no such curve, though single readings can be large or run the other way; note: series mostly up to about 120 µM
# Target sequence (P11473 whole entry, looked up): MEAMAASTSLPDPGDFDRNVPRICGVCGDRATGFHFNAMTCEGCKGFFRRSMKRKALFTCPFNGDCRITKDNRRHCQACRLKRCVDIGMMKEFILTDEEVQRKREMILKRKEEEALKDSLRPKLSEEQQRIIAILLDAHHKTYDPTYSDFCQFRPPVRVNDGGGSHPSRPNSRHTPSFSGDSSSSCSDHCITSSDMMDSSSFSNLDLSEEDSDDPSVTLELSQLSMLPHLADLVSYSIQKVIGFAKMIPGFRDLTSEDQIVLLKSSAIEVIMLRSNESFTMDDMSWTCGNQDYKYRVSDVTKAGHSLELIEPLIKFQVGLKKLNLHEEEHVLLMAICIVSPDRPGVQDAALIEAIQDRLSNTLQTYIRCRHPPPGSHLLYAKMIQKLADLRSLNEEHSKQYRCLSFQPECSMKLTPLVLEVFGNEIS
#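 The screen uses fluorescence polarization to detect compounds that interfere with recruitment of the SRC2-3 coactivator peptide to VDR; plates are read after 2 h at room temperature.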
# * marks the source's active call; other numbers are inactive results; ? = inconclusive; & = joins results of further samples; ! = not active in a repeat. % is set by controls: 0 for no effect and ±100 for the full control effect; potency is the fitted concentration of half-maximal effect. These rows are one share of the data. The share of hits here may be higher or lower than overall.
SMILES,VDR inh
CS(=O)(=O)N(CC(=O)N1CCc2ccccc2C1)c1cccc([N+](=O)[O-])c1,-25.3%
Cc1cccc(C)c1NC1=NC(=S)N(c2ccc(N(C)C)cc2)C1(C)C,-19.1%
COc1ccc(C2=NOC(Cn3nc(C(=O)O)cc3-c3ccccc3)C2)cc1 (stereo not drawn),-17.2%
O=C1c2cccnc2C(=O)N1C1CCCCC1,-5.9%
O=C(NCCO)C(=O)c1c(-c2ccccc2)cc2ccccn12,5.3%
CCN(CC)S(=O)(=O)c1cnccc1N1CCN(c2cccc(Cl)c2)CC1,14.9%
Cc1ccc(-c2cn(-c3ccc(OC(F)F)cc3)c3[n+]2CCCCC3)cc1,-4.0%
Cc1ccc(-c2nc3ncccn3c2Nc2ccc3c(c2)OCCO3)o1,-5.3%
CC1CN(Cc2nc3c(c(=O)n(C)c(=O)n3C)n2CCN2CCOCC2)CC(C)O1 (stereo not drawn),-10.9%
CC1(C)CCSC(/C=C/c2ccccc2)=N1,?
S=C(NCCc1c[nH]c2ccccc12)NC1CC1,2.5%
O=C(O)Cc1ccc(NC(=O)c2cccc(NC(=O)c3ccco3)c2)cc1,4.7%
Cc1ccc(CC(=O)OC(C)C(=O)NC2CCCCC2C)cc1C (stereo not drawn),-19.5%
CCN(CC)S(=O)(=O)c1ccc(Cl)c(C(=O)OCC(=O)c2c(N)n(C)c(=O)n(C)c2=O)c1,9.9%
Cn1ncc(Cl)c(Oc2ccccc2)c1=O,-2.0%
O=C(CCN1CCc2ccccc2C1)Nc1ccc2c(c1)OCO2,0.3%
Cc1ccc(C(=O)Nc2ccc(N3CCN(C)CC3)cc2)cc1,-4.8%
CC(C)(CO)NCC(=O)Nc1cc(C(F)(F)F)cc(NC(=O)CNC(C)(C)CO)c1Cl,1.9%
C/C(=N\NC(=O)c1ccccc1C)c1ccc(NC(=O)c2cccs2)cc1,-6.1%
COc1ccc(S(=O)(=O)N(C)CC(=O)N2CCC(C(N)=O)CC2)cc1Cl,4.2%
Cc1ccc(S(=O)(=O)N2CCC(C(=O)N[C@H](C(=O)NC3CCS(=O)(=O)C3)C(C)C)CC2)cc1 (stereo partly drawn),27.2%
CCN1CCN(c2ccc(N=Cc3ccccc3O)cc2)CC1,-9.9%
CCN(C(=O)/C=C/c1ccc(OC)cc1)C1CCCCC1,-7.0%
COc1ccc(/C=C(\C#N)c2nc(-c3cc4ccccc4oc3=O)cs2)cc1OC,-21.6%

# Taken from above.
# Value for CCN1CCN(c2ccc(N=Cc3ccccc3O)cc2)CC1 in VDR inh: -9.9%
# Value for C/C(=N\NC(=O)c1ccccc1C)c1ccc(NC(=O)c2cccs2)cc1 in VDR inh: -6.1%
# Value for CCN(C(=O)/C=C/c1ccc(OC)cc1)C1CCCCC1 in VDR inh: -7.0%

# Next part.
SMILES,VDR inh
Cc1sc2nc3n(c(=O)c2c1C)CCCS3,-0.7%
CC1CN(C2=CC(=O)CCC2)CC(C)O1 (stereo not drawn),1.6%
Cc1ccc(S(=O)(=O)Cn2nnnc2C(c2ccccc2)N2CCN(c3ncccn3)CC2)cc1 (stereo not drawn),0.8%
CCCC(=O)NC(Nc1ccccc1OC)C(Cl)(Cl)Cl (stereo not drawn),-15.8%
Cc1cccc(Cn2cccc2CNS(=O)(=O)c2ccc(Br)cc2)c1,12.4%
Cc1ccc2nc(-c3ccc4c(c3)NC(=O)CO4)cn2c1,-0.3%
CCOc1cccc(CNc2ccc(O)cc2)c1OCc1ccccc1Cl,39.8µM*!
CCOC(=O)c1ccc(NC(=S)N2CCN(S(C)(=O)=O)CC2)cc1,1.3%
COc1ccc(CCN(C)C(=O)CCc2nnc(-c3ccccc3)o2)cc1OC,7.3%
CC1=C(C(=O)OC(C)C)C(c2ccccn2)n2ncnc2N1 (stereo not drawn),-12.4%
CCOC(=O)CNC(=O)CSc1ccc2nnc(-c3cccnc3)n2n1,-5.6%
CS(=O)(=O)N1CCN(C(=O)C2c3ccccc3Oc3ccccc32)CC1,-2.1%
CCOc1ccccc1NC(=O)c1cccc2ccccc12,-2.8%
COCCN1C2=C(C(=O)CC(C)(C)C2)C(c2ccc(O)c(OC)c2)C2=C1CC(C)(C)CC2=O,-0.2%
O=C(CN1C(=O)NC(CCc2ccccc2)C1=O)Nc1cccc(Br)c1 (stereo not drawn),5.7%
CC(C)(C)C1CCc2c(sc(NC(=O)c3cc4ccccc4c(=O)o3)c2C(N)=O)C1 (stereo not drawn),-13.9%
CC(C)(C)C(C(=O)n1cccc1C#N)c1ccccc1 (stereo not drawn),-4.7%
CN(C)CC1C2CCC(C2)C1O (stereo not drawn),-7.0%
CCCCOC(=O)c1ccc(NC(=O)Cc2coc3c(C)c(C)ccc23)cc1,19.1%
Cc1ccc(C)c(NS(=O)(=O)c2ccc(OCC(=O)N3CCCC3)cc2)c1,-19.6%
Cc1ccc(NC(=O)CSc2nc3nccnc3c(=O)n2CCc2c[nH]c3ccccc23)cc1C,-2.9%
CCN1CCN(CCOCCOc2ccccc2)CC1,-3.5%
Cc1ccc(C(C(=O)NC2CCCC2)N(C(=O)CCC(=O)Nc2cc(C)on2)c2ccccc2)cc1 (stereo not drawn),-2.6%
O=C(CN(Cc1ccccc1Cl)C(=O)CN1C(=O)CSc2ccccc21)NC1CC1,?
CC1=CS/C(=C(/C#N)C(=O)N2CCOCC2)N1c1ccccc1,9.3%
C=C(C)C1CC=C(C)/C(=N/NC(=O)COc2ccc(C)cc2)C1 (stereo not drawn),9.0%
Cc1ccc(NC(=O)COC(=O)C2=NNC(=O)CC2)c(Br)c1,17.0%
CCOc1ccc(-c2cc(CCCC(=O)NCCC(C)C)no2)cc1,14.9%
COc1ccc(C(CC(=O)c2ccccc2)CC(=O)c2ccccc2)cc1,3.7%
COc1ccccc1C(O)(C(=O)NN(C(=O)c1ccccc1)c1ccccc1C)c1cccs1 (stereo not drawn),14.0%
CCN(c1ccccc1)S(=O)(=O)c1ccc(C(=O)N(CCCN(C)C)c2nc3c(C)cccc3s2)cc1,-3.4%
CCc1ccc(CN2CCN(c3ncccn3)CC2)cc1,-21.9%
COc1ccccc1C(=O)C1CCCN(C(=O)c2cccnc2SC)C1 (stereo not drawn),-10.4%
O=C(CCc1nc(-c2cccs2)no1)NCc1ccc(F)cc1Cl,-1.0%
COc1cc2c(cc1OC)C(C(=O)NC(C)c1ccccc1)CC(=O)N2 (stereo not drawn),2.9%
CC(Sc1ncccn1)C(=O)Nc1ccc2c(c1)OCO2 (stereo not drawn),-9.0%

# Seven compounds from above, sorted by their value in VDR inh, smallest number first.
canonical_smiles,VDR inh
CCc1ccc(CN2CCN(c3ncccn3)CC2)cc1,-21.9%
COc1ccccc1C(=O)C1CCCN(C(=O)c2cccnc2SC)C1 (stereo not drawn),-10.4%
CC(Sc1ncccn1)C(=O)Nc1ccc2c(c1)OCO2 (stereo not drawn),-9.0%
CCN(c1ccccc1)S(=O)(=O)c1ccc(C(=O)N(CCCN(C)C)c2nc3c(C)cccc3s2)cc1,-3.4%
C=C(C)C1CC=C(C)/C(=N/NC(=O)COc2ccc(C)cc2)C1 (stereo not drawn),9.0%
CCOc1ccc(-c2cc(CCCC(=O)NCCC(C)C)no2)cc1,14.9%
Cc1ccc(NC(=O)COC(=O)C2=NNC(=O)CC2)c(Br)c1,17.0%

# (continued)
SMILES,VDR inh
CCc1ccccc1NC(=O)Nc1ccc(F)cc1,8.5%
COc1cc2c(cc1OC)C(C(=O)Nc1ccc(F)c(Cl)c1)CC(=O)N2 (stereo not drawn),-12.3%
COc1ccc(Cl)cc1NC(=O)CN(C)C(=O)C1COc2ccccc2O1 (stereo not drawn),29.3%
CCOc1ccccc1NC(=O)CNC(=O)c1nn(-c2ccc(OC)c(OC)c2)c(=O)c2ccccc12,-7.5%
CNC(=O)c1c(NC(=O)c2ccco2)sc(C)c1C,3.6%
O=C(NCc1cccc(F)c1)c1ccc(N2C(=O)Cn3c(cc4sccc43)C2=O)cc1,-28.4%
COC(=O)c1ccc(COc2ccc(C=O)cc2)o1,-9.0%
O=C(NCCCn1cccn1)C1CCC(=O)N(CCc2ccccc2)C1 (stereo not drawn),-21.0%
CCOC(=O)N1CCN(Cc2c(F)cccc2Cl)CC1,18.1%
O=C(CCc1ccccc1)N/N=C/c1cccc([N+](=O)[O-])c1,11.2%
O=C(NCC(=O)N1CCN(c2ccccc2)CC1)c1ccccc1,1.1%
N#CC1(Nc2ccccc2)C(=O)Nc2ccccc21 (stereo not drawn),-12.7%

# Continued (4 carried over from the part before).
SMILES,VDR inh
CCOC(=O)N1CCN(Cc2c(F)cccc2Cl)CC1,18.1%
O=C(CCc1ccccc1)N/N=C/c1cccc([N+](=O)[O-])c1,11.2%
O=C(NCC(=O)N1CCN(c2ccccc2)CC1)c1ccccc1,1.1%
N#CC1(Nc2ccccc2)C(=O)Nc2ccccc21 (stereo not drawn),-12.7%
O=C(O)CCCCCNc1nc(-c2ccccc2)nc2ccccc12,3.3%
O=C(NCCCN1CCOCC1)c1cccc(NS(=O)(=O)c2ccc(Br)cc2)c1,8.8%
O=C(NCCN1CCCCC1)c1ccc(Cn2c(SCc3ccc(F)cc3)nc3cccnc32)cc1,21.8%
CC1CCCC(NC(=O)COC(=O)/C=C/c2ccc(F)cc2)C1C (stereo not drawn),-2.0%
CCOC(=O)Cc1csc(NC(=O)CSc2nnc(C(C)C)n2CC)n1,4.3%
O=C(Nc1ccccc1Cl)C1CC(=O)N(Cc2ccco2)C1 (stereo not drawn),1.2%
O=C(NCCNC(=O)c1ccccc1F)c1ccccn1,-18.9%
CCCn1c(SCC(=O)Nc2ccccc2Oc2ccccc2)n[nH]c1=O,-9.9%
CC1CCCc2sc3ncn(N)c(=N)c3c21 (stereo not drawn),24.1%
CCN1CCN(C(=O)c2ccc3c(c2)N(Cc2ccc(C)cc2)CCS3)CC1,7.5%
COc1ccc([N+](=O)[O-])cc1N(CC(O)CN(CC(C)C)CC(C)C)S(=O)(=O)c1ccccc1 (stereo not drawn),-1.3%
Cc1cc(C)nc(NC(=O)Cc2cccs2)n1,-0.1%
C=CCNc1oc(-c2ccc(OC)cc2)nc1C#N,5.2%
COc1ccc(Cn2c(-c3ccco3)nc3oc4cc(OC)ccc4c(=O)c3c2=O)cc1,-6.8%
COc1ccc(-c2cccc(-c3cc(=O)oc4ccc(C(C)(C)C)cc34)c2)cc1,?
Cc1ccc(NS(=O)(=O)c2ccc(OCC(=O)NCC3CCCO3)cc2)cc1 (stereo not drawn),-4.9%
OC(c1ccccn1)C1CCN(Cc2nc(C(c3ccccc3)c3ccccc3)no2)CC1 (stereo not drawn),-23.7%
Cc1ccnc(SCC(=O)Nc2cccc(S(=O)(=O)N3CCOCC3)c2)n1,2.1%
COc1cccc(-c2nc(CS(=O)(=O)CC(=O)NCCc3ccc(OC)cc3OC)c(C)o2)c1,1.8%&-13.2%
Cc1cnc(SCc2ccc(Cl)cc2Cl)[nH]c1=O,5.6%
CCc1ccc(-c2nc(CSCC(=O)NCc3ccc(C)cc3)c(C)o2)cc1,-16.3%
COc1cc(C(=O)NNC(=O)CNC(=O)c2ccc(Br)o2)cc(OC)c1OC,5.8%
Cc1cc(C)cc(NC(=O)CSc2nc3ccccc3nc2N2CCCC2)c1,-0.5%
CCN(CC)S(=O)(=O)c1ccc(NC(=S)Nc2ccc(F)cc2)cc1,2.0%
CC1CCCN(C(=O)COC(=O)CNS(=O)(=O)c2ccc3ccccc3c2)C1 (stereo not drawn),-17.7%
N#C/C(=C(/O)COC(=O)c1cccnc1Cl)c1nc2ccccc2[nH]1,-18.6%
C=CCNc1nc(Cl)nc(NC2CCCCC2)n1,-0.4%
Fc1ccc(-c2nc(-c3cccs3)[nH]c2-c2ccc(F)cc2)cc1,-13.5%
COc1nc(NC2CCCCC2)nc(NC(C)(C)C)n1,-3.0%
CC(=O)Nc1nonc1C(=O)N1CCC(C)CC1,7.9%
C=CCOC(=O)C1=C(C)NC(=S)NC1/C=C/c1ccccc1 (stereo not drawn),-19.9%
CN(C)c1ccc(/C=C(\C#N)C(=O)Nc2nc3c(s2)CCN(Cc2ccccc2)C3)cc1,4.3%
CC(=O)OCC(OC(C)=O)C(OC(C)=O)C(OC(C)=O)C(=O)Nc1cccc(C)c1 (stereo not drawn),-24.0%
COc1cc2[nH]c(=O)n(CCC(=O)N3CCN(c4cc(Cl)ccc4C)CC3)c(=O)c2cc1OC,16.0%
Cc1ccc(S(=O)(=O)Nc2c(C(=O)O)[nH]c3ccccc23)cc1C,-19.3%
CC(C)N(Cc1cc2ccccc2[nH]c1=O)C(=O)c1cccnc1,1.9%

# 4 structures out of the list, ordered by heavy-atom count, falling.
SMILES,VDR inh
CN(C)c1ccc(/C=C(\C#N)C(=O)Nc2nc3c(s2)CCN(Cc2ccccc2)C3)cc1,4.3%
Cc1ccc(S(=O)(=O)Nc2c(C(=O)O)[nH]c3ccccc23)cc1C,-19.3%
C=CCOC(=O)C1=C(C)NC(=S)NC1/C=C/c1ccccc1 (stereo not drawn),-19.9%
C=CCNc1nc(Cl)nc(NC2CCCCC2)n1,-0.4%

# Later entries:
SMILES,VDR inh
COc1ccc(N(CC(=O)Nc2cc(C(=O)O)ccc2C)S(=O)(=O)c2c(C)noc2C)cc1,-14.7%
COc1ccc(NC(=O)Cn2nc(C)c3nn(-c4ccc(Cl)cc4)c(C)c3c2=O)cc1,4.2%
NC1=NC(=O)C(Cc2ccc(OC(F)(F)F)cc2)S1 (stereo not drawn),-3.6%
COc1cccc(CNC(=O)Cn2cccc2)c1,3.5%
CCOC(=O)N1CCC(NC(=S)Nc2ccc3nc(N4CCN(C)CC4)cc(C)c3c2)CC1,-6.3%
CCC/C(=C1/C(=O)CC(C)(C)C(C(=O)OC)C1=O)N1CCCC1 (stereo not drawn),14.1%
Cc1cc(C)nc(N2CCC(C(=O)O)CC2)n1,9.8%
CCOc1ccc(C(=O)Nc2ccc3[nH]ncc3c2)cc1,-8.6%
Cc1cc(C)c(S(=O)(=O)NCc2ccncc2)c(C)c1,4.9%
NS(=O)(=O)c1ccc(NC(=O)Nc2ccc3c(c2)OCO3)cc1,-6.5%
O=C(Nc1c(C(=O)NCc2ccco2)cnn1-c1ccccc1)c1ccc(F)cc1,-2.7%
CCC1(c2ccccc2)NC(=O)N(CC(=O)N2CCN(S(=O)(=O)c3ccccc3)CC2)C1=O (stereo not drawn),6.2%
